Screening data: PubChem, Broad Institute
MLL AF4-AF9 inh = inhibitors of AF4 peptide binding to AF9, primary screen, biochemical, AlphaScreen, biotin-AF4 peptide, FLAG-AF9, single point; Protein AF-9 (Homo sapiens), P42568; inhibition, % at 10 µM; 350,000 compounds, 0.47% hits; AID 651704, 2012;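 active means every replicate reaching a set inhibition limit, whatever the replicate mean, cut at about 25% in these data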;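 further: 0% = plate neutral control median and 100% = total signal loss; the record names both 10 and 1 µM as test concentration; the first replicate is given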
Target sequence (P42568 whole entry, looked up): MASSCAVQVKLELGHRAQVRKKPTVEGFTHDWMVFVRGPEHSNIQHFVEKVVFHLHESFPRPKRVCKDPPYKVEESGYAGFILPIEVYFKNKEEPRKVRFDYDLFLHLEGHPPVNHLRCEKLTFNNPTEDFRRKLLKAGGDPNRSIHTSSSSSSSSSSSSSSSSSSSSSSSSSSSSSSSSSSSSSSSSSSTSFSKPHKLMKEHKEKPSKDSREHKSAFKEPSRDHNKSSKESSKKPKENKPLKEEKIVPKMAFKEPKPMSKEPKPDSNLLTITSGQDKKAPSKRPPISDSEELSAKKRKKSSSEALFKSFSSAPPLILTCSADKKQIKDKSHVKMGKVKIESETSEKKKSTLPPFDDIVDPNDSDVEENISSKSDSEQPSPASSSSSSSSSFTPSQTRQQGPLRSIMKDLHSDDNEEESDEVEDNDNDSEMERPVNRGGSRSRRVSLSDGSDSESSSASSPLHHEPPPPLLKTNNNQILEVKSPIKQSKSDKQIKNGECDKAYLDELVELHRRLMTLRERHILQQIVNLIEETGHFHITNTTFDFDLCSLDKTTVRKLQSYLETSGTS
rRNA inh HTS = reduced GFP signal of wild-type E. coli, primary screen, bacterial rRNA inhibitor project, GFP/RFP fluorescence, OD600, single point; E. coli WT GFP vs humanized-ribosome RFP mutants, 24 h; stronger effect = lower value; DMSO median 0, no signal -100; GFP signal change (wild-type ribosome), % (no concentration beside the values); 350,000 compounds, 1.6% hits; AID 720706, 2013;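 active means significant combined selectivity score with lowered wild-type GFP, culture density cut under 30%, mutant RFP and density less affected; inactive means any of these conditions unmet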; further: one replicate is shown; some compounds called inactive have numbers as strong as hits
FGF22 binding = binders of human FGF22 protein, primary screen, FGF22 synaptogenesis inhibitor project, biophysical, thermal shift, single point | Fibroblast growth factor 22 (Homo sapiens), Q9HCT0 | recombinant FGF22 thermal shift, SYPRO orange fluorescence; percent of sucrose octasulfate shift, DMSO zero | calls only at 9.99 µM | 340,000 compounds, 1.5% hits | AID 651658, 2012;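 active means melting point raised past a set limit in the mean and every replicate; three in four hits are not shown here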
Target sequence (Q9HCT0 whole entry, looked up): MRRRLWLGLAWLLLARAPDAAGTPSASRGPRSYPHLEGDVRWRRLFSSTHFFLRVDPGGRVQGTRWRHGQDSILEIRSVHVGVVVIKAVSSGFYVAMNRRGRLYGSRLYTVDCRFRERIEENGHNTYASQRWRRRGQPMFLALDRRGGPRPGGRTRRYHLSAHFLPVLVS
rRNA inh HTS OD600 = also measured in rRNA inh HTS; calls as there; OD600 change, %; measured here: OD600 growth;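 optical density of the mix in the first replicate; 0 = DMSO median and -100 = no signal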
rRNA inh HTS RFP = also measured in rRNA inh HTS; calls as there; RFP signal change, %; measured here: RFP humanized mutant strains;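 first replicate; 0 = DMSO median and -100 = no signal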
The depositor's hits bear a star; i = inactive; + = active, no number; & = joins results of further samples. The list is partial. The share of hits here may be higher or lower than overall.

molecule	MLL AF4-AF9 inh	rRNA inh HTS	rRNA inh HTS OD600	rRNA inh HTS RFP	FGF22 binding
COc1ccc(S(=O)(=O)Nc2ccc3c(c2)C(=O)N([C@H](C)CO)C[C@@H](C)[C@H](CN(C)S(=O)(=O)c2ccccc2)OCCCC[C@@H](C)O3)cc1	0.5	0	-3	1.2	i
CCNC(=O)c1cc2c(c(-c3cccc(-c4ccccc4F)c3)n1)[C@@H](CCO)N(C(=O)CC1CC1)C2	4.3&3.5	-10&-3	-26&-19	8.6&27	i
Cc1ccc(S(=O)(=O)Nc2cccc3c2O[C@@H](CN(C)C(=O)Nc2ccc(F)cc2)[C@H](C)CN([C@@H](C)CO)C3=O)cc1	-3.6	2	-11	2.7	i
C[C@@H]1CCCCO[C@@H](CN(C)S(=O)(=O)c2ccc(Cl)cc2)[C@@H](C)CN([C@@H](C)CO)C(=O)c2cc(NC(=O)NC3CCCCC3)ccc2O1	1.1	3	-2	0.1	i
CCOC(=O)CCCCCC(=O)Nc1ccc2c(c1)C(=O)N([C@H](C)CO)C[C@H](C)[C@@H](CN(C)S(C)(=O)=O)OCCCC[C@@H](C)O2	3.3	7&2	14&-3	0.0&0.1	i
CCC(=O)N1CCCCN2[C@H](CO)[C@H](c3ccc(/C=C/c4ccccc4)cc3)[C@@H]2C1	3.0	-54	-77	-3.8	i
OC(c1ccc2ccccc2c1)c1ncc(-c2cccc3ccccc23)[nH]1 (centres undefined)	-1.5	-55	-77	-20	i
CC(=O)Nc1cccc(-c2csc(C(O)c3ccc(F)cc3)n2)c1 (centres undefined)	-9.8	-13	-24	-5.7	i
CCCN(C)C[C@@H]1Oc2cc(-c3cccc(OC)c3)ccc2S(=O)(=O)N([C@@H](C)CO)C[C@@H]1C	3.3	0	3	2.2	i
CN(C)C(=O)C[C@@H]1C[C@@H]2c3cc(NC(=O)CC4CC4)ccc3O[C@@H]2[C@H](CO)O1	-3.8	4	6	-1.6	i
C[C@@H]1CN([C@@H](C)CO)C(=O)Cc2cc(NS(=O)(=O)c3cccs3)ccc2O[C@@H]1CN(C)S(=O)(=O)c1ccc(Cl)cc1	-10	0	-8	6.9	i
CCCc1cn(CC[C@@H]2CC[C@H](NS(=O)(=O)c3ccccc3Cl)[C@@H](CO)O2)nn1	-0.2	0	-1	-0.3	i
C[C@H](O)C#Cc1cnc2c(c1)C(=O)N([C@H](C)CO)C[C@@H](C)[C@@H](CN(C)C(=O)Nc1ccc(F)cc1)O2	-3.3	5	3	-5.1	i
O=C(CC(F)(F)F)N1C[C@H]2[C@@H](c3ccccc31)[C@H](CO)N2C(=O)Cc1ccccc1	-1.8	-1	14	-0.4	i
O=C(CCCC(=O)NN=Cc1ccc(Cl)cc1Cl)NN=Cc1ccc(Cl)cc1Cl	3.9	4	5	-1.8	i
Cc1nnsc1C(=O)N1CCCC(C)(C(=O)NS(=O)(=O)C2CC2)C1 (centres undefined)	-0.4	9	8	-0.7	i
CN(C)C(=O)C[C@H]1CC[C@H]2[C@@H](COC[C@H](O)CN2S(=O)(=O)c2ccccc2)O1	-2.9	1	7	-5.6	i
C[C@@H]1CCCCO[C@H](CN(C)C(=O)Nc2ccc(F)cc2)[C@H](C)CN([C@H](C)CO)C(=O)c2cc(NS(=O)(=O)c3cn(C)cn3)ccc2O1	-1.1	0	-2	-0.4	i
O=C(C[C@H]1CC[C@@H]2[C@H](COC[C@@H](O)CN2Cc2nccs2)O1)NCc1ccc(-c2ccccc2)cc1	-1.8	-2	-13	-1.6	i
OCC1OC(n2cnc3ncccc32)C(O)C1O (centres undefined)	-7.7	6	7	-4.2	i

Taken from the entries so far for reference:
molecule	MLL AF4-AF9 inh	rRNA inh HTS	rRNA inh HTS OD600	rRNA inh HTS RFP	FGF22 binding
C[C@@H]1CN([C@@H](C)CO)C(=O)Cc2cc(NS(=O)(=O)c3cccs3)ccc2O[C@@H]1CN(C)S(=O)(=O)c1ccc(Cl)cc1	-10	0	-8	6.9	i
CCCc1cn(CC[C@@H]2CC[C@H](NS(=O)(=O)c3ccccc3Cl)[C@@H](CO)O2)nn1	-0.2	0	-1	-0.3	i
C[C@H](O)C#Cc1cnc2c(c1)C(=O)N([C@H](C)CO)C[C@@H](C)[C@@H](CN(C)C(=O)Nc1ccc(F)cc1)O2	-3.3	5	3	-5.1	i
O=C(CC(F)(F)F)N1C[C@H]2[C@@H](c3ccccc31)[C@H](CO)N2C(=O)Cc1ccccc1	-1.8	-1	14	-0.4	i
O=C(CCCC(=O)NN=Cc1ccc(Cl)cc1Cl)NN=Cc1ccc(Cl)cc1Cl	3.9	4	5	-1.8	i
Cc1nnsc1C(=O)N1CCCC(C)(C(=O)NS(=O)(=O)C2CC2)C1 (centres undefined)	-0.4	9	8	-0.7	i

Going on with the list:
molecule	MLL AF4-AF9 inh	rRNA inh HTS	rRNA inh HTS OD600	rRNA inh HTS RFP	FGF22 binding
COc1ccc2c3c(n(C)c2c1)[C@H](CO)N(C(=O)Nc1ccccc1F)CC31CN(C)C1	15	5	5	0.3	i
COc1ccc(C(C)=O)cc1Cn1c(C)c(C(=O)NC2CC2)sc1=O	-3.5	2	6	-9.0	i
CCCNC(=O)Nc1ccc2c(c1)OC[C@H](C)N(C(=O)C1CCC1)C[C@@H](C)[C@@H](OC)CN(C)C2=O	-1.3	0	3	1.4	i
CCCc1nc2ccc(C)cn2c1Cc1ccc(C)cc1	-3.5	3	9	-0.8	i
COc1ccccc1N1CCN(S(=O)(=O)CCNC(=O)CCc2ccccc2)CC1	-6.4	-6	-10	1.6	i
C[C@H]1CN([C@@H](C)CO)S(=O)(=O)c2ccc(-c3ccc(C#N)cc3)cc2O[C@@H]1CN(C)C(=O)C1CC1	-12	3	2	-2.5	i
O=C(c1cccc(F)c1)N1CCCCN2[C@H](CO)[C@H](c3ccc(C#CC4(O)CCCC4)cc3)[C@@H]2C1	1.4	-5	-12	-2.0	i
O=C(C[C@H]1CC[C@@H]2[C@H](COC[C@@H](O)CN2C(=O)c2ccccc2F)O1)NCc1ccc(F)cc1	-2.4	0	-2	21	i
C[C@@H]1CN([C@H](C)CO)C(=O)c2cc(C3=CCCCC3)cnc2O[C@H]1CN(C)C(=O)Nc1cccc(F)c1	1.4	-2	-8	2.3	i
CCCCc1ccc(S(=O)(=O)NC(=O)C2(C)CCN2C(=O)c2cccc(F)c2)cc1 (centres undefined)	-2.4	-16	-10	-1.8	i
CCCc1c(-c2cccc(Br)c2)ncn1Cc1ccccc1OC	1.7	-38	-74	-8.3	i
COc1ccc(S(=O)(=O)N(C)C[C@@H]2Oc3c(NC(=O)NC(C)C)cccc3C(=O)N([C@H](C)CO)C[C@@H]2C)cc1	-2.3	1	-1	-2.0	i
COc1ccc(CN(C)C[C@H]2Oc3c(NS(=O)(=O)c4cn(C)cn4)cccc3C(=O)N([C@@H](C)CO)C[C@H]2C)cc1	0.3	3	4	-1.4	i
O=C(C[C@H]1C=C[C@@H](NC(=O)Nc2ccc(F)cc2)[C@H](CO)O1)NCc1cccc(F)c1	-2.5	3	7	0.3	i
CNC[C@@H]1Oc2c(NC(=O)C3CCCCC3)cccc2C(=O)N([C@@H](C)CO)C[C@@H]1C	1.4	2	6	-1.1	i
O=C(NC1CCCC1)[C@@H]1[C@@H](CO)[C@@H]2Cn3c(ccc(-c4cccnc4)c3=O)[C@@H]2N1CC1CC1	-0.9	1	2	-4.8	i
CCCN(C[C@H]1N[C@H](CO)[C@@H]1c1ccc(-c2cccnc2)cc1)C(C)=O	-1.1&-1.6	0	9	-3.2	i
CCC(=O)N[C@H]1CC[C@@H](CC(=O)NCc2ccccc2OC)O[C@H]1CO	1.7	2	-2	0.0	i
O=C(CCN1CCCCC1)N[C@@H]1CC[C@@H](CCNS(=O)(=O)c2ccc(F)cc2)O[C@@H]1CO	0.0	3	3	-1.4	i
C[C@@H]1CN([C@H](C)CO)C(=O)c2cc(NC(=O)NC3CCCCC3)ccc2O[C@@H](C)CCCCO[C@@H]1CN(C)Cc1ccccc1	3.5	-2	-22	4.5	i

Fetched by compound from the entries so far (two):
molecule	MLL AF4-AF9 inh	rRNA inh HTS	rRNA inh HTS OD600	rRNA inh HTS RFP	FGF22 binding
O=C(CCN1CCCCC1)N[C@@H]1CC[C@@H](CCNS(=O)(=O)c2ccc(F)cc2)O[C@@H]1CO	0.0	3	3	-1.4	i
CCCc1nc2ccc(C)cn2c1Cc1ccc(C)cc1	-3.5	3	9	-0.8	i

Following part:
molecule	MLL AF4-AF9 inh	rRNA inh HTS	rRNA inh HTS OD600	rRNA inh HTS RFP	FGF22 binding
Cc1ccccc1S(=O)(=O)NC(=O)C1(C)CCN1C(=O)C1(c2ccccc2)CC1 (centres undefined)	-3.2	12	21	0.7	i
Nc1ccc(C(=O)NN2C(=O)[C@H](Cl)C2c2ccc(Cl)cc2)cc1 (some centres undefined)	0.9	-15	-1	7.6	+
O=C(C[C@H]1C[C@@H]2c3cc(NC(=O)c4cccnc4)ccc3O[C@@H]2[C@@H](CO)O1)NCc1ccccn1	-0.2	1	2	1.5	i
CCC(=O)N1CCCCN2[C@H](CO)[C@@H](c3ccc(-c4cccc(C#N)c4)cc3)[C@@H]2C1	-1.2	-12	-9	-3.0	i
CN[C@H]1C[C@H]2c3[nH]c4ccccc4c3CCN2C(=O)[C@H]1[C@H](C)O	2.6	3	3	2.4	i
C/C=C/c1ccc2c(c1)O[C@H](CN(C)C(=O)CC1CC1)[C@H](C)CN([C@@H](C)CO)S2(=O)=O	1.0	-2	-1	-2.3	i
COc1ccc(-c2ccc3c(c2)[C@@H]2[C@@H](CCN2C(=O)c2cccc(F)c2)[C@H](CO)N3)cc1	10	-8	-10	-4.1	i
COc1cccc(NC(=O)N(C)C[C@H]2Oc3ncc(C#Cc4ccncc4)cc3C(=O)N([C@@H](C)CO)C[C@@H]2C)c1	-3.5	0	7	0.5	i
CCCNC(=O)[C@H]1[C@H](CO)[C@H]2Cn3c(ccc(/C=C/c4ccccc4)c3=O)[C@@H]1N2C(C)=O	-2.4	-2	-1	-0.1	i
CN1C[C@H]2[C@@H](c3ccccc31)[C@H](CO)N2C(=O)C1CC1	0.6	3	1	-0.2	i
CN(C)C(=O)c1cccc(COc2ccc(N3C(N)=NC(N)=NC3(C)C)cc2Cl)c1	-4.5	11	20	3.3	i
CC(C)(COC(=O)c1ccccc1)N1CC2CCC(C1)O2	0.3	-4	-4	0.1	i
COc1ccc(S(=O)(=O)N2CC[C@@H]3[C@H](CO)Nc4ccc(-c5ccc(C#N)cc5)cc4[C@@H]32)cc1	-4.2	5	4	4.1	i
N#Cc1cccc(NC(=O)c2cc(C3CCCCN3S(=O)(=O)c3cccc4cccnc34)on2)c1 (centres undefined)	0.0	-13	-18	-1.0	i
Cn1cnc(S(=O)(=O)N2CC[C@@H]3[C@@H](CO)Nc4ccc(-c5cccc(F)c5)cc4[C@@H]32)c1	0.3	-6	1	-3.6	i
C[C@@H]1CN([C@H](C)CO)S(=O)(=O)c2ccc(C#CCN(C)C)cc2O[C@H]1CN(C)C	-1.1	2	0	-0.2	i

3 entries from above, sorted by their value in rRNA inh HTS, high to low.
mol	rRNA inh HTS
C/C=C/c1ccc2c(c1)O[C@H](CN(C)C(=O)CC1CC1)[C@H](C)CN([C@@H](C)CO)S2(=O)=O	-2
Cn1cnc(S(=O)(=O)N2CC[C@@H]3[C@@H](CO)Nc4ccc(-c5cccc(F)c5)cc4[C@@H]32)c1	-6
CCC(=O)N1CCCCN2[C@H](CO)[C@@H](c3ccc(-c4cccc(C#N)c4)cc3)[C@@H]2C1	-12
